Bioassay records as filed in PubChem BioAssay.
NS1 function inh – qHTS Assay for Inhibitors of Influenza NS1 Protein Function. 0.4% of 270,000 active. S. cerevisiae slowed by influenza A NS1, growth recovery by OD600. Potency, µM (titrated, usually from 46.1 µM), without a hit: at the top dose activity, positive = more growth; active means well fitted rising curve with a large enough effect; inconclusive means small, poorly fitted or top-dose-only effect; inactive means no such curve, though single readings can be large or run the other way; note: nearly all actives have a fitted effect of over 50% in size
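Compounds were scored for reversing the slow growth caused by influenza A NS1 in S. cerevisiae, measured by optical density at 600 nm. Assay medium contained 2% galactose at pH 6.0; NS1-free yeast of the same strain were the positive control.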
SARS PLpro yeast – qHTS of Yeast-based Assay for SARS-CoV PLP | S. cerevisiae expressing SARS-CoV PLpro, growth rescue; control for the full effect not named in the record | 0.19% of 330,000 active | Potency, µM (doses to about 32.9 µM), for inactives: top-dose activity, positive = growth rescue; active means well fitted rising curve with a large enough effect; inconclusive means small, poorly fitted or top-dose-only effect; inactive means no such curve, though single readings can be large or run the other way; note: 0% is about no effect; nearly all actives have a fitted effect of over 55% in size; growth read by luminescence after 48 h
Lassa entry inh – qHTS for Inhibitors of binding or entry into cells for Lassa Virus. Lassa virus pseudotype entry inhibition, cell reporter; control for the full effect not named in the record. Potency, µM (series often up to 37.9 µM), for inactives: at the top dose activity change, negative = inhibition, actives largely listed as inhibitors. 1.2% of 300,000 active. AID 540256, 2011; active means well fitted inhibition curve with a large enough effect; inconclusive means small, poorly fitted or top-dose-only effect, or effect the other way; inactive means flat fitted curve, though single readings scatter; tested in HEK293 cells; note: % is set by controls: 0 for no effect and ±100 for the full control effect; nearly all actives have a fitted effect of over 50% in size; luciferase read-out
RE007 growth inh – qHTS Assay for Inhibitors of the HIV-1 protein Vpr. 0.21% of 360,000 active. AID 651644, 2012. S. pombe RE007 Vpr strain, BacTiter-Glo ATP luminescence, 24 h; control for the full effect not named in the record. Potency, µM (highest dose often 92.2 µM), inactives show at the top dose activity change, negative = less growth; active = well fitted falling curve with a large enough effect; inconclusive = small, poorly fitted or top-dose-only effect; inactive = no such curve, though single readings can be large or run the other way;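 note: % is set by controls: 0 for no effect and ±100 for the full control effect; nearly all actives have a fitted effect of over 50% in size; the assay follows cell death caused by Vpr and the record does not say whether a fall means rescue or toxicity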
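Fission yeast RE007 carrying one integrated HIV-1 vpr copy, seeded at OD 0.01 in PMG+AL medium with 23 nL pinned compound. Grown 24 h at 30 degrees; viability read by BacTiter-Glo luminescence after 5 min.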
Marburg entry inh – qHTS for inhibitors of binding or entry into cells for Marburg Virus | Marburg virus pseudotyped entry inhibition, cell reporter; control for the full effect not named in the record; about a third of the inactives were read at about 46 µM | Potency, µM (highest dose often 37.8 µM), for inactives: at the highest dose activity change, negative = inhibition, hits mostly inhibitors | 1.8% of 300,000 active | AID 540276, 2011; active = well fitted inhibition curve with a large enough effect; inconclusive = small, poorly fitted or top-dose-only effect, or effect the other way; inactive = flat fitted curve, though single readings scatter; tested in HEK293 cells; about a fifth of its hits are not listed in these tables; note: % is set by controls: 0 for no effect and ±100 for the full control effect; luciferase read-out
Cruzain noTriton – qHTS Assay for Promiscuous and Specific Inhibitors of Cruzain (without detergent); Cruzipain (Trypanosoma cruzi), P25779; purified cruzain, Z-FR-AMC fluorescence, no detergent; Potency, µM, without a hit: max response, negative = inhibition, actives largely listed as inhibitors; 2.3% of 200,000 active; AID 1476, 2009;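 note: plate controls were enzyme without inhibitor for no effect and buffer without enzyme for full effect; nearly all actives have a fitted effect of over 40% in size; top concentration of the series not given in the record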
Target sequence (P25779 123-467 limits assumed): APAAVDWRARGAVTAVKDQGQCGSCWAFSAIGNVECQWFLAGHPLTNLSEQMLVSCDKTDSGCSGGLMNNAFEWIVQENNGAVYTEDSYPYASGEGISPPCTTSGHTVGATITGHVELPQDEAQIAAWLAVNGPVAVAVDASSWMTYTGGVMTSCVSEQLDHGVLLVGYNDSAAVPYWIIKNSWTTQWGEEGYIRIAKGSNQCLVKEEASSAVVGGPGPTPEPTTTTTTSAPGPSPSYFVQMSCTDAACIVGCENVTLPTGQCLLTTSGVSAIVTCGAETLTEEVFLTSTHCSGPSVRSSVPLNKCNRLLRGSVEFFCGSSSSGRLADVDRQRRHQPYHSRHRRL
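Purified cruzain at 1.5 nM, pre-incubated 15 min with compound at room temperature in 100 mM sodium acetate pH 5.5, 5 mM DTT, 0.00005% Triton X-100. Reaction started with 2 uM Z-FR-AMC; AMC fluorescence increase over 60 s gives rate.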
StopGo reporter – High Throughput Screening for Foot and Mouth Disease Virus Antivirals; 1.2% of 410,000 active; Potency, µM (doses to about 57.9 µM), without a hit: top-dose signal change, negative = less light; human cells with a luciferase reporter of 2A StopGo recoding; control for the full effect not named in the record; active = well fitted falling curve with a large enough effect; inconclusive = small, poorly fitted or top-dose-only effect; inactive = no such curve, though single readings can be large or run the other way; tested in HEK293T cells; note: % is set by controls: 0 for no effect and ±100 for the full control effect; nearly all actives have a fitted effect of over 45% in size; luciferase light after 4 h
Cruzain inh Det – qHTS Assay for Promiscuous and Specific Inhibitors of Cruzain (with detergent) | Cruzipain (Trypanosoma cruzi), P25779 | 0.43% of 200,000 active | AID 1478, 2009 | purified cruzain, Z-FR-AMC fluorescence, 0.01% Triton | Potency, µM, without a hit: max response, negative = inhibition, most hits filed as inhibitors;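 note: plate controls were neutral wells for no effect and buffer without enzyme for full effect; nearly all actives have a fitted effect of over 40% in size; top concentration of the series not given in the record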
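Cysteine protease activity tested under reducing, mildly acidic conditions (100 mM sodium acetate pH 5.5, 5 mM DTT) plus 0.01% Triton X-100. Cruzain 1.5 nM; substrate Z-FR-AMC 2 uM; 15 min compound preincubation at room temperature.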
* hit, by the source's call; & = joins results of further samples; [ ] = remark or other dose. Unless noted, calls come from the whole dose curve; as a rule, active = well fitted curve in the direction sought with a large enough effect; inconclusive = small, poorly fitted or top-dose-only effect, or another doubt; inactive = no such curve, though single readings can be large; an effect the other way counts as inactive or inconclusive. Potency is the fitted concentration of half-maximal effect. Outcome played no part in choosing rows. About 4.6% of those tested had a hit in this group.

For Cc1ccc(CNC(=O)C2CCC(CNS(=O)(=O)c3ccc4c(c3)CCCC(=O)N4)CC2)cc1 (stereo not given) the results were Lassa entry inh 2%[46.1 µM], Cruzain noTriton -3%, StopGo reporter -3% and Cruzain inh Det 2.4%.
For Nc1n[nH]c(-c2ccc([N+](=O)[O-])cc2[N+](=O)[O-])n1 the results were NS1 function inh 2%, SARS PLpro yeast 1%, RE007 growth inh -1% and StopGo reporter 2%.
COc1ccc(S(=O)(=O)N2Cc3ccccc3CC2C(=O)N2CCOCC2)cc1 (stereo not given) was read as NS1 function inh -1%, SARS PLpro yeast -1%, Lassa entry inh -6%, RE007 growth inh -7%, Marburg entry inh 15%, Cruzain noTriton -2% and Cruzain inh Det 4.0%.
`O=c1c2ccccc2oc2cc(Br)ccc12` gave Lassa entry inh 2%[46.1 µM], RE007 growth inh -11%, Marburg entry inh inconclusive and StopGo reporter 37%[activator].
Screening O=[N+]([O-])c1ccc(NC(=S)N2CCN(c3ccccn3)CC2)cc1 returned NS1 function inh -11%, SARS PLpro yeast 1%, Lassa entry inh inconclusive, RE007 growth inh -11%, Marburg entry inh 0% and StopGo reporter 14%.
CCN(c1ccc(OC)cc1)S(=O)(=O)c1nnc(NC(=O)C(C)C)s1 was read as NS1 function inh 7%, SARS PLpro yeast 0%, Lassa entry inh -30%[46.1 µM], RE007 growth inh 13%, Marburg entry inh inconclusive and StopGo reporter -9%.
CCOC(=O)C1C(c2ccccc2)N(C)OC1(O)C(F)(F)F (stereo not given) was read as SARS PLpro yeast -2%, Lassa entry inh -9%[46.1 µM], RE007 growth inh 1%, Marburg entry inh 8%[46.1 µM] and StopGo reporter 2%.
`CC(=O)N1N=C(c2ccccc2O)OC1(C)CC(=O)Nc1ccccc1` (stereo not given) gave NS1 function inh 7%, SARS PLpro yeast 9%, Lassa entry inh 2%, RE007 growth inh -6%, Marburg entry inh inconclusive, Cruzain noTriton 3%, StopGo reporter -5% and Cruzain inh Det -1.8%.
For COC(=O)C1CN(C(=O)C(C)Oc2ccc(C(C)C)cc2)c2ccccc2O1 (stereo not given) the results were NS1 function inh 3%, SARS PLpro yeast -2%, RE007 growth inh 3% and StopGo reporter -22%.
CC(=O)c1ccc2c(c1)Cc1cc(C(C)=O)ccc1-2 was read as NS1 function inh 7%, SARS PLpro yeast 10%, Lassa entry inh inconclusive, RE007 growth inh -11%, Marburg entry inh -5%, Cruzain noTriton -6%, StopGo reporter 32%[activator] and Cruzain inh Det -4.3%.
N#Cc1c(SCC(N)=O)nsc1SCc1ccc(Cl)cc1 was read as NS1 function inh 10%, SARS PLpro yeast 4%, Lassa entry inh 11%, RE007 growth inh 5%, Marburg entry inh 9%&9%, Cruzain noTriton 4%, StopGo reporter inconclusive and Cruzain inh Det -6.2%.
CCc1ccc[n+](-c2[nH]c(=O)sc2/C=N/N=C(\[O-])c2ccncc2)c1 was read as NS1 function inh 2%, SARS PLpro yeast 3%, Lassa entry inh 2%[46.1 µM], RE007 growth inh 6%, Marburg entry inh -1%[46.1 µM] and StopGo reporter -17%.
Screening CCOC(=O)c1c(C)nn(-c2ccc(NC(=O)c3cccs3)cc2)c1C returned NS1 function inh -17%, SARS PLpro yeast 1%, Lassa entry inh inconclusive, RE007 growth inh 18%, Marburg entry inh inconclusive and StopGo reporter inconclusive.
Screening Cc1sc2nc(SC(C)C)nc(N)c2c1C returned NS1 function inh 2%, SARS PLpro yeast 8%, Lassa entry inh inconclusive, RE007 growth inh 3%, Marburg entry inh 3%, Cruzain noTriton -25%, StopGo reporter 37%[activator] and Cruzain inh Det -3.4%.
`CC1CC(C)CN(S(=O)(=O)c2cc3c4c(c2)CCN4C(=O)CC3)C1` (stereo not given) gave SARS PLpro yeast 3%, Lassa entry inh -3%, RE007 growth inh 6%, Marburg entry inh 2% and StopGo reporter 14%.
COC(=O)c1ccccc1N1C(=O)[C@@H]2C(c3ccc(F)cc3)=NO[C@@H]2C1=O was read as NS1 function inh -10%, SARS PLpro yeast 1%, Lassa entry inh 5%, RE007 growth inh -8%, Marburg entry inh 7%, Cruzain noTriton -5%, StopGo reporter -2% and Cruzain inh Det -2.5%.
O=C(CCc1ccncc1)NC1CCCc2c1cnn2-c1cc(F)cc(F)c1 (stereo not given) was read as NS1 function inh 18%, SARS PLpro yeast -3%, Lassa entry inh 1%[46.1 µM], RE007 growth inh 6%, Marburg entry inh -10%[46.1 µM] and StopGo reporter -13%.
Screening CCOC(=O)C1CCN(c2nc3c(S(=O)(=O)c4ccccc4)nnn3c3ccsc23)CC1 returned Lassa entry inh inconclusive, Cruzain noTriton 4%, StopGo reporter -6% and Cruzain inh Det -9.9%.
CC(OC(=O)CCc1nc2ccccc2c(=O)[nH]1)C(=O)c1ccc(C(C)(C)C)cc1 (stereo not given) was read as NS1 function inh 7%, SARS PLpro yeast 6%, Lassa entry inh 9%, RE007 growth inh -4%, Marburg entry inh -7%, Cruzain noTriton 0%, StopGo reporter inconclusive and Cruzain inh Det -6.9%.
COC(=O)c1cc(NC(=O)C2CC2)cc(C(=O)OC)c1 was read as NS1 function inh -6%, SARS PLpro yeast 0%, Lassa entry inh -1%, RE007 growth inh 43%, Marburg entry inh 0%, Cruzain noTriton 15%, StopGo reporter 20% and Cruzain inh Det -1.2%.
Cn1c(SCc2nn[nH]n2)nc2c1c(=O)n(Cc1ccccc1Cl)c(=O)n2C was read as NS1 function inh 5%, SARS PLpro yeast 1%, Lassa entry inh 1%, RE007 growth inh 8%, Marburg entry inh 3%, Cruzain noTriton -9%, StopGo reporter 11% and Cruzain inh Det -1.8%.
`CCOc1ccc(C2OCCC(C)O2)cc1OC` (stereo not given) gave Lassa entry inh 1%[46.1 µM], RE007 growth inh 14%, Marburg entry inh 13%[46.1 µM] and StopGo reporter 2%.
For COc1ccc(NC(=O)CSc2nnc(-c3cc(C)[nH]n3)n2N)cc1OC the results were NS1 function inh 11%, SARS PLpro yeast 0%, RE007 growth inh 4% and StopGo reporter 23%.
For Cc1ccc(S(=O)(=O)CCC(=O)NCc2ccco2)cc1 the results were NS1 function inh 5%, SARS PLpro yeast 2%, Lassa entry inh inconclusive, RE007 growth inh -7%, Cruzain noTriton -4%, StopGo reporter 2% and Cruzain inh Det 0.3%.
Cc1ccc(CC2CC(=O)N(c3cc(C)on3)C2=O)cc1 (stereo not given) was read as NS1 function inh -56%, SARS PLpro yeast -3%, RE007 growth inh 9%, Cruzain noTriton 4%, StopGo reporter -3% and Cruzain inh Det 4.2%.
Screening COc1ccc(CNC(=O)C2CCN(c3cc(C(=O)Nc4cccc(OC)c4)ccn3)CC2)cc1 returned NS1 function inh -12%, SARS PLpro yeast -11%, RE007 growth inh 2% and StopGo reporter -22%.
Screening CCN(CC)S(=O)(=O)c1csc(C(=O)OCC(=O)c2ccccc2)c1 returned NS1 function inh -10%, SARS PLpro yeast 4%, Lassa entry inh -2%, RE007 growth inh 2%, Marburg entry inh -13%, Cruzain noTriton -5%, StopGo reporter 9% and Cruzain inh Det -6.6%.
COc1ccc(C2/C(=C(/O)c3ccc4c(c3)CC(C)O4)C(=O)C(=O)N2CCN2CCOCC2)cc1OC (stereo not given) was read as NS1 function inh -8%, SARS PLpro yeast -3%, Lassa entry inh inconclusive, RE007 growth inh 10%, Marburg entry inh 2% and StopGo reporter -17%.
For O=C(c1ccc(CSc2ccccc2)cc1)N1CCN(c2ccccc2)CC1 the results were SARS PLpro yeast 0%, Lassa entry inh -28%[46.1 µM], RE007 growth inh -6%, Marburg entry inh inconclusive and StopGo reporter 10%.
`CCCNC(=O)C(=O)N/N=C/c1cccs1` gave NS1 function inh 0%, SARS PLpro yeast 10%, Lassa entry inh 6%, RE007 growth inh -1%, Marburg entry inh 17%, Cruzain noTriton -4%, StopGo reporter 37%[activator] and Cruzain inh Det -3.4%.
`Cc1nnsc1S(=O)c1ccc(F)cc1` (stereo not given) gave NS1 function inh 3%, SARS PLpro yeast 0%, RE007 growth inh -4% and StopGo reporter inconclusive.
`CC(C)C(C(=O)NCC1CCCO1)N(CC1CCCO1)C(=O)CNS(=O)(=O)c1ccccc1` (stereo not given) gave NS1 function inh 3%, SARS PLpro yeast 24%, Lassa entry inh 26%[46.1 µM], RE007 growth inh 10%, Marburg entry inh 0%[46.1 µM] and StopGo reporter -1%.
For COCCOC(=O)c1c(C)oc2ccc(OCc3ccccc3)cc12 the results were NS1 function inh -10%, SARS PLpro yeast -11%, Lassa entry inh inconclusive, RE007 growth inh -3%, Marburg entry inh 2%, Cruzain noTriton 12%, StopGo reporter -26% and Cruzain inh Det -5.9%.
For CCN(CC)S(=O)(=O)c1ccc2c(c1)oc(=O)n2CC(=O)N(C)C1CCCCC1 the results were NS1 function inh 8%, SARS PLpro yeast -5%, Lassa entry inh 0%[46.1 µM], RE007 growth inh 0%, Marburg entry inh 1%[46.1 µM] and StopGo reporter -10%.
Screening COCCCNC(=O)c1cc2c(=O)n3cc(C)ccc3nc2nc1NCC1CCCO1 (stereo not given) returned NS1 function inh 4%, SARS PLpro yeast -8%, Marburg entry inh 4%, Cruzain noTriton inconclusive and Cruzain inh Det inconclusive.
`Cc1ccc(Sc2cc(C(=O)NCCCN(C)C)c3ccccc3n2)cc1` gave NS1 function inh 0%, SARS PLpro yeast 0%, Lassa entry inh inconclusive, RE007 growth inh 6%, Marburg entry inh inconclusive and StopGo reporter -2%.
Screening CC(=O)N1CCCc2cc(S(=O)(=O)N3CCCC(C(=O)Nc4ccc(C)c(F)c4)C3)ccc21 (stereo not given) returned Lassa entry inh -25%[46.1 µM], Cruzain noTriton inconclusive, StopGo reporter inconclusive and Cruzain inh Det -4.9%.
`COc1ccc(N2C(=O)N3[C@H](c4cccc(C)c4)[C@@H]4C(=O)N(Cc5ccccc5)C(=O)[C@@H]4[C@]3(Cc3ccccc3)C2=O)cc1` gave NS1 function inh 14µM*, SARS PLpro yeast 21%, RE007 growth inh -2% and StopGo reporter -6%.
